Arbovirus anti – antivirals against arbovirus infection. arbovirus infection cell-based antiviral screen. inhibition, % at 10 µM. 200,000 tested, 0.37% active;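 active means inhibition from about 30%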;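 further: bluetongue infection of BSR cells; cell survival read as ATP light after 72 h; 0% = infected wells without compound and 100% = uninfected wells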
RecA intein inh – blocks M. tuberculosis RecA intein splicing. P9WHJ3. cell-free RecA intein splicing, fluorescence. inhibition, %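 (about 9 µM by stock and volumes)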. 290,000 tested, 0.75% active. AID 2221; in the data active means inhibition above about 30%; inconclusive means no clear call, values can overlap the other calls;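 further: 0% = vehicle wells and 100% = reference inhibitor control wells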
Target sequence (P9WHJ3 whole entry, looked up): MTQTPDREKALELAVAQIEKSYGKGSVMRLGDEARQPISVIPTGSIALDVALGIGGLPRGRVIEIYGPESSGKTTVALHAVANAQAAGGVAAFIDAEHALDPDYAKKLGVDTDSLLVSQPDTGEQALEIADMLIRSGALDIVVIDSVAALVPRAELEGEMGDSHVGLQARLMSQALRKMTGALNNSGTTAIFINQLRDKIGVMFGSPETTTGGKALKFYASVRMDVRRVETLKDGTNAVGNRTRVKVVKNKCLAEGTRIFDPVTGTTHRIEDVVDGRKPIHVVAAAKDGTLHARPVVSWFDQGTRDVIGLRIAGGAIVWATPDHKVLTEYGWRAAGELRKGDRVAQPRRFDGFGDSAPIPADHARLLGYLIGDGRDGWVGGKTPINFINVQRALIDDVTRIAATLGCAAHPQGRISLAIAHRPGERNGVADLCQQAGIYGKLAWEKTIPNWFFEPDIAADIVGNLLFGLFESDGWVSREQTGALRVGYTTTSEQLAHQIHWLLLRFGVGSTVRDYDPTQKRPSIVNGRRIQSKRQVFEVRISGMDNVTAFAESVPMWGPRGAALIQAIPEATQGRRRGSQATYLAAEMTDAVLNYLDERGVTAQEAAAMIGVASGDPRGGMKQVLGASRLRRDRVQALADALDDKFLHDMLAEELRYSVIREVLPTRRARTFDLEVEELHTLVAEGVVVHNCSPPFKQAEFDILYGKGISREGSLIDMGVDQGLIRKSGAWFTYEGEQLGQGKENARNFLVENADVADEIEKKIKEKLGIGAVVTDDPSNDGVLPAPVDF
Mtb betalactam – beta-lactam sensitization of Mtb H37Rv | AID 434955 | inhibition, % at 25 µM | M. tuberculosis H37Rv growth with meropenem, percent inhibition; hits of this screen are not shown here | 330,000 tested, 0.27% active;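 active means about 74% or more and at least 40 points above the plate without the antibiotic, then above 30% in a dose series; inconclusive means first-round hits that could not be retested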;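 further: growth measured after seven days incubation then overnight dye step; 0% = bacteria only wells and 100% = bacteria with antibiotic; twin plates without the antibiotic show which effects depend on it; some results filed as inactive read as strong as hits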
YopH inh – blocks Yersinia enterocolitica YopH tyrosine phosphatase; AID 898; 140,000 tested, 0.16% active; fluorescence Ex485/Em525; inhibition, %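 (about 10 µM by stock and volumes)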;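 active means inhibition of 50% or more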;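 further: controls were vehicle for no effect and minimum signal wells for full effect; inactives centre near -20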
Mtb growth – M. tuberculosis H37Rv growth inhibitors, H37Rv strain (AID 1626); one-dose inhibition, % at 10 µM; IC50 in µM for titrated hits; 220,000 tested, 0.95% active; M. tuberculosis H37Rv growth inhibition; higher % means a stronger effect;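 active means confirmed in a dose series; inconclusive means inhibition above 80% but not taken into the dose series; inactive means below 80% or under 30% at every dose of the series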;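 further: bacteria incubated seven days before Alamar blue readout; 0% = bacteria only wells and 100% = bacteria with antibiotic wells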
Arbovirus anti repeat – also measured in Arbovirus anti; calls as there; inhibition, %; measured here: 10K subset replicate screen; many hits read low in the repeat;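 first of two repeat runs on a subset; 0% = infected and 100% = uninfected wells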
An asterisk follows results filed as active; u = inconclusive; x = not tested or not shown. An excerpt (hit frequency here may not be typical).

SMILES | Arbovirus anti | RecA intein inh | Mtb betalactam | YopH inh | Mtb growth | others
CC(=O)Cc1nsc(NC(=O)c2ccc(COc3ccccc3C)o2)n1 | x | -2.2 | -1 | x | x
COc1ccc(Cc2nc3ccccc3[nH]c2=O)cc1 | x | -1.5 | -2 | x | x
COC(=O)C1=C(C)NC(C)=C(C(=O)OC)C1c1ccc(OC(=O)c2oc3ccccc3c2C)c(OC)c1 | -10 | -1.5 | -6 | -13 | 10%
COc1ccc(NC2CC(=O)N(C(C)C)C2=O)cc1 (centres undefined) | -1 | 1.4 | -4 | 9 | 41%
COc1ccc2c(CC(=O)Nc3ccc(N4CCOCC4)cc3)coc2c1 | -6 | -1.9 | 0 | x | 2%
CN(C)n1cccc1/C=C(\C#N)S(=O)(=O)c1ccc(Cl)cc1 | x | 1.5 | 2 | x | 4%
CCc1nnc(NC(=O)CSc2nnc(-c3ccc(OC)cc3)n2C)s1 | -1 | 1.4 | 1 | 10 | 6%
CS(=O)(=O)NCCCNc1ccc(Cl)cc1[N+](=O)[O-] | 6 | 2.6 | -1 | -17 | -8%
CC1Oc2ccccc2N(CC(=O)N2CCCc3ccccc32)C1=O (centres undefined) | -3 | 1.7 | -13 | -51 | -1%
CC(C)CC(=O)Nc1nnc(SCC(=O)Nc2nccs2)s1 | x | -4.9 | 0 | x | x
CCCNC(=O)c1cccc(COCC(F)(F)C(F)F)c1 | -4 | -0.1 | -2 | 29 | 1%
CN1C(=O)NC(c2cccc(F)c2)C2=C1CC(C)(C)CC2=O (centres undefined) | x | -1.3 | -1 | x | x
CCCCC(=O)N/N=C/c1c(O)n(C2CC2)c(=S)[nH]c1=O | 3 | 0.0 | -3 | -23 | 3%
S=C(NCCCN1CCOCC1)N1CCOCC1 | x | -2.9 | 5 | x | 1%
COc1ccc(S(=O)(=O)N2CCCCCC2)cc1C(=O)NCCOc1ccc(C)cc1 | x | -1.2 | -10 | x | x
Cc1sc2nc(C3CC3)nc(N3CCN(C(=O)c4ccccc4F)CC3)c2c1C | x | 22 | 11 | x | x
O=C(NCCc1ccccc1F)C1CCCN1S(=O)(=O)c1ccccc1 (centres undefined) | 9 | 1.6 | 1 | -37 | -10%
Cc1ccsc1CN(C(=O)c1ccc([N+](=O)[O-])cc1)C1CCS(=O)(=O)C1 (centres undefined) | x | 2.4 | 6 | x | x
Cc1ccccc1C(=O)N1CCN(S(=O)(=O)c2ccccc2)CC1 | x | 1.3 | 0 | x | x
CCOc1ccccc1NC(=O)Cc1cccs1 | x | 0.9 | -1 | x | x
CCCc1cc(=O)oc2cc(OCC(=O)N3CCN(C(=O)C4COc5ccccc5O4)CC3)ccc12 (centres undefined) | x | -0.6 | 30 | x | x
CC(O)[C@H]1CNCCN1CCc1cccc(F)c1 (some centres undefined) | x | -1.8 | -3 | x | x
CC1(C)CC(=O)C2=C(C1)N(CC1CCCO1)C(=O)NC2(C(F)(F)F)C(F)(F)F (centres undefined) | -1 | -0.5 | 6 | 23 | -8%
Cc1nc(C)c(Oc2ccc(Cl)cc2Cl)c(=O)[nH]1 | x | 0.1 | -1 | x | -2%
CCC(C)NC(=O)c1ccc(NC(=O)C2CCCO2)cc1 (centres undefined) | -5 | -3.2 | u | -43 | -15% | Arbovirus anti repeat=0
CN1CCN(S(=O)(=O)c2cccc3nsnc23)CC1 | x | -4.6 | -2 | x | x
CN1C2CCC1CC(=NO)C2 | -2 | -1.4 | 8 | x | 2% | Arbovirus anti repeat=0
CCn1c(O)c(/C=N/N=C/c2ccc(OC)cc2)c2cc(C3=NNC(=O)CC3)ccc21 | x | -2.7 | 7 | x | -6%
NC(=O)NC(=O)COC(=O)c1cccc(NS(=O)(=O)/C=C/c2ccccc2)c1 | 4 | 1.0 | -7 | x | 7%
CNC(=O)CSc1nnc(COc2ccc(Cl)cc2)n1CCOC | -2 | -0.9 | 0 | -8 | -2%
COc1ccc(COC(=O)CCNC(=O)c2ccc(Cl)cc2)cc1 | x | -0.2 | 13 | x | x
Cc1c(C(=O)NCCc2ccc(S(N)(=O)=O)cc2)cccc1[N+](=O)[O-] | 11 | 0.0 | 1 | x | 8%
CCOC(=O)c1c(C)[nH]c2cc(Br)c(O)cc12 | -6 | -1.6 | -3 | -38 | -7%
Fc1ccc(C2CCCN2Cc2nc(-c3cnccn3)no2)cc1 (centres undefined) | -29 | -1.2 | 3 | x | -4%
COc1ccc(-n2ccnc(SCC(=O)NC3CCCCC3)c2=O)cc1 | x | 3.6 | 2 | x | x
COc1ccccc1-c1nnc(SCc2ccccn2)n1C | 8 | -0.3 | -8 | 24 | -10%
CC(C)(C)c1ccc(Oc2ccc(NC(=O)C3CC=CCC3C(=O)O)cc2)cc1 (centres undefined) | 5 | -5.1 | 3 | x | 4%
CC(=O)NN1C(=O)/C(=C\c2ccc(Cl)cc2)SC1=S | 1 | 0.3 | 0 | x | 1%
CCN(C(=O)COC(=O)C1CCN(S(=O)(=O)c2ccc3c(c2)OCCO3)CC1)C1CCCCC1 | x | 1.8 | 1 | x | x
Cc1ccc(-n2c(=S)[nH]c3[nH]ncc3c2=O)cc1 | 3 | 1.3 | 4 | x | 1%
CCCCn1c(N)c(N(CC(C)C)C(=O)c2ccc(-c3ccc(C(C)=O)cc3)o2)c(=O)[nH]c1=O | x | -7.5 | -15 | x | x
CCCCCCCCCn1c2c(c(=N)c3c1CCC3)CCC2 | -36 | 20 | 100 | -5 | 56%
N/C(CC(=O)Nc1cc(C(F)(F)F)ccc1Cl)=N\O | x | 4.3 | -6 | x | -2%
Oc1ccccc1C1=NCCNC(C(F)(F)C(F)F)=C1 | 10 | 0.0 | 5 | -101 | 0%
Cc1ccc(C)c(OCC(=O)Nc2ccccc2C(=O)NC2CC2)c1 | x | -2.3 | 10 | x | x
CC(C)Cc1ccccc1S(N)(=O)=O | x | 1.5 | -14 | x | x
Cc1ccc[n+](-c2nc3ccccc3nc2[N-]S(=O)(=O)c2ccccc2)c1 | x | -1.0 | 0 | x | 0%
Cc1cc(NC(=O)c2ccc3c(c2)OCCO3)ccc1NC(=O)c1cc2ccccc2o1 | -36 | -0.6 | x | x | 2%
Cc1cc(NC(=O)COC(=O)CCNS(=O)(=O)c2c(Cl)cccc2Cl)no1 | 1 | 0.6 | -7 | x | 5%
c1ccc(COc2cccc(CN3CCN(c4ccccn4)CC3)c2)cc1 | 7 | 4.9 | 87 | -22 | 18%
COCCNC(=O)NC12CC3(C)CC(C)(CC(C)(C3)C1)C2 | -5 | 2.3 | 2 | x | 2%
CC(=O)Nc1ccc(OS(=O)(=O)c2c(C)cc(C)cc2C)cc1 | -5 | 0.3 | -4 | x | 5%
Cc1occc1C(=O)Nc1ccc(OCc2ccccc2)cc1 | -20 | 3.5 | 29 | x | 3%
CCOC(=O)c1c(C)nc(C)c(C(=O)OCC)c1-c1cccc(N)c1 | 1 | 3.4 | -11 | x | 7%
Cc1ccc(S(=O)(=O)N2Cc3ccccc3CC2C(=O)Nc2ccc3c(c2)OCO3)cc1 (centres undefined) | -12 | 4.7 | -8 | -9 | 1%
CC1=C(C(=O)OCc2ccccc2)C(c2cccc(Cl)c2Cl)NC(=O)N1CCCCCC(=O)O (centres undefined) | x | 5.5 | -5 | x | x
O=C(c1ccccc1Oc1ccc([N+](=O)[O-])cc1)N1CCOCC1 | x | -2.2 | 11 | x | x
Cc1cc(C)c(C#N)c(SCc2ccccc2F)n1 | -13 | 5.1 | -9 | x | -1%
COc1ccc(C(=O)NC2CC2)cc1OC1CCN(Cc2cnn(C)c2C)CC1 | x | -0.5 | 1 | x | x
CCOC(=O)c1c(N)nn(C(=O)C(C)C)c1-c1ccccc1 | -1 | 1.9 | -3 | 0 | -6%

Brought forward from above: five compounds, then new ones.
SMILES | Arbovirus anti | RecA intein inh | Mtb betalactam | YopH inh | Mtb growth | others
CC1=C(C(=O)OCc2ccccc2)C(c2cccc(Cl)c2Cl)NC(=O)N1CCCCCC(=O)O (centres undefined) | x | 5.5 | -5 | x | x
O=C(c1ccccc1Oc1ccc([N+](=O)[O-])cc1)N1CCOCC1 | x | -2.2 | 11 | x | x
Cc1cc(C)c(C#N)c(SCc2ccccc2F)n1 | -13 | 5.1 | -9 | x | -1%
COc1ccc(C(=O)NC2CC2)cc1OC1CCN(Cc2cnn(C)c2C)CC1 | x | -0.5 | 1 | x | x
CCOC(=O)c1c(N)nn(C(=O)C(C)C)c1-c1ccccc1 | -1 | 1.9 | -3 | 0 | -6%
Cc1ccc(-n2c(Cc3cccn3C)nnc2SCC(=O)Nc2ccc3c(c2)OCO3)cc1 | -13 | x | 7 | -49 | -5%
CC(=O)Oc1ccc(-c2cccc(C(=O)OCC(=O)N(C)c3ccccc3)c2)cc1 | 14 | 18 | 26 | -19 | 8%
Cc1ccccc1N(CC(=O)N1CCc2ccccc2C1)S(C)(=O)=O | x | -0.2 | 3 | x | x
CC(C)C(=O)N1CCN(c2ccc(NC(=O)c3ccc(Br)o3)cc2)CC1 | -5 | -1.7 | -10 | -13 | 8%
Cc1ccc(N(Cc2cc3ccc(C)cc3[nH]c2=O)C(=O)c2cccs2)cc1 | x | -4.6 | -6 | x | 0%
CCOC(=O)c1cc(C(C)=O)c(=O)[nH]c1C | 9 | -0.5 | -2 | x | 6%
Cc1nnsc1NC(=O)OCc1ccccc1Cl | 2 | -4.2 | -4 | -26 | -8%
CCOc1ccc2[nH]c(=O)c(CN(Cc3ccco3)C(=O)c3cccc(F)c3)cc2c1 | -6 | 0.2 | -8 | -38 | -2%
CN1CCN(S(=O)(=O)c2ccc3c(c2)CC(=O)N3C)CC1 | x | 9.7 | -2 | x | x
CCOC(=O)COc1ccc(Br)cc1/C=C/c1[nH]c(=O)[nH]c(=O)c1[N+](=O)[O-] | 2 | 1.6 | 11 | x | 2%
CC(C)OCCCN1C=C2C(=O)C(C)(OC(=O)CCc3ccccc3)C(=O)C=C2C=C1c1ccc(C#N)cc1 (centres undefined) | x | -0.7 | -1 | x | -5%
O=C(O)CCCC(=O)NNc1nc(-c2ccccc2)c2cc(Cl)ccc2n1 | x | -2.6 | -7 | x | x
CCOP(=O)(C#CC(C)(C)C)C1(O)CCCCC1 (centres undefined) | -1 | 1.0 | -11 | -39 | 6%
Cc1ccc(OCCC(=O)Nc2ccc(S(=O)(=O)Nc3cc(C)nc(C)n3)cc2)cc1 | x | 0.8 | -1 | x | x
CCCCCc1n[nH]c2c1CCCC2 | x | 6.2 | 70 | x | 5%
Cc1ccc(C(=O)CN(C(=O)c2ccc(Cl)c(Cl)c2)N2C(=O)C3C4C=CC(C4)C3C2=O)cc1 (centres undefined) | 1 | 17 | 6 | -34 | 1%
CCCCCCCCNC(=O)c1cccnc1SCC(=O)Nc1ccc(OC)cc1OC | -8 | 6.0 | -2 | -5 | 5%
CCOC(=O)c1ccc(NC(=O)c2nc[nH]c2C(=O)N2CCN(c3ccccc3)CC2)cc1 | x | -0.3 | -5 | x | -3%
Cc1nc(C(=O)NC2CCOCC2)sc1C1(C)CC(c2cccc([N+](=O)[O-])c2)=NO1 (centres undefined) | x | -2.7 | -1 | x | -8%
CS(=O)Cc1cc(Oc2ccccc2)nc(-c2ccncc2)n1 (centres undefined) | 0 | -0.2 | 2 | x | x
NS(=O)(=O)c1ccc(CCNC(=O)CCS(=O)(=O)c2ccc(Br)cc2)cc1 | x | -2.9 | 5 | x | x
O=c1[nH]c(N/N=C/c2ccccc2Br)nnc1-c1ccccc1 | -11 | 0.4 | 7 | -30 | 1%
COc1ccc2[nH]c3c(=O)n(Cc4ccc(C(=O)N5CCCC5)cc4)c(=S)[nH]c3c2c1 | -4 | 0.0 | -1 | x | -11%
O=C(NCc1nc2ccccc2[nH]1)C1=C[C@H](C2CC2)C[C@H](OCCCCO)O1 | 5 | -3.7 | -2 | x | -4%
O=C(Oc1ccccc1N1C(=O)C2CC=CCC2C1=O)c1ccc(Br)cc1 (centres undefined) | -1 | 3.1 | 15 | -26 | 2%
Cc1ccc(/C=C/S(=O)(=O)NCC(=O)OCC(=O)Nc2c(F)cccc2F)cc1 | x | -1.3 | 88 | x | x
O=C1c2cccnc2C(=O)N1c1cccc([N+](=O)[O-])c1 | x | -1.6 | 2 | x | x
COc1ccccc1/C=N\N=C(\N)c1ccccn1 | -1 | -1.4 | 3 | -2 | 1%
CCCc1cc(=O)oc2cc(OCc3ccc(C(=O)O)o3)ccc12 | x | 0.6 | -3 | x | x
CCCSCCCNC(=O)CC1Oc2ccccc2NC1=O (centres undefined) | 2 | x | 1 | -46 | 0%
CC(NC(=O)C(NS(=O)(=O)c1cccc2nsnc12)C(C)C)c1ccccc1 (centres undefined) | x | -0.9 | -3 | x | x

Bioassay records deposited in PubChem BioAssay by several laboratories.
